High-throughput results: PubChem BioAssay, National Center for Advancing Translational Sciences (NCATS)
2A firefly: FMDV 2A StopGo reporter, firefly signal. HEK cells with a luciferase reporter of 2A StopGo recoding. Potency, µM (highest dose often 57.5 µM), for inactives: at the top dose signal change, negative = less light. hit rate 0.23% among 120,000. AID 1745856; active = well fitted falling curve with a large enough effect; inconclusive = small, poorly fitted or top-dose-only effect; inactive = no such curve, though single readings can be large or run the other way; note: nearly all actives have a fitted effect of over 60% in size; overnight with compound
StopGo RLuc: lowers the Renilla signal of an FMDV 2A StopGo reporter; HEK cells with a luciferase reporter of 2A StopGo recoding; Potency, µM (top dose mostly 57.5 µM), without a hit: top-dose signal change, negative = less light; hit rate 0.32% among 120,000; active means well fitted falling curve with a large enough effect; inconclusive means small, poorly fitted or top-dose-only effect; inactive means no such curve, though single readings can be large or run the other way; note: nearly all actives have a fitted effect of over 55% in size; overnight with compound
An asterisk follows results filed as active; ? = inconclusive; & = joins results of further samples; [ ] = remark or other dose. % is set by controls: 0 for no effect and ±100 for the full control effect; potency is the fitted concentration of half-maximal effect.

SMILES	2A firefly	StopGo RLuc
CCOC(=O)Cc1cc(=O)n2[nH]c(NCc3cccc(C)c3)nc2n1	43%[activator]	21%
Cc1cc(C)cc(NC(=O)C(NS(=O)(=O)c2cccc3nsnc23)c2ccccc2)c1 (stereo not drawn)	-14%	-11%
CC(C)CCNC(=O)c1c2c(nc3ccccc13)C(=O)N(C1CCCCC1)C2	-29%	-17%
Cc1ccccc1CSc1nc2nc[nH]c2c(=O)[nH]1	0%	9%
COc1cc(C(O)c2nc3ccccc3n2C(C)C)cc(OC)c1OC (stereo not drawn)	-1%	1%
Cc1ccccc1-c1nc(C#N)c(NCCN(C)C)o1	0%	17%
N#Cc1nc(-c2ccccc2F)oc1NC1CCCCC1	104%[activator]	79%[activator]
CC1CN(C(=O)CCC(=O)NCc2cccs2)c2ccccc2O1 (stereo not drawn)	-9%	-5%
COc1cn(CC(=O)Nc2ccccc2C(F)(F)F)c(CN2CCN(C(C)=O)CC2)cc1=O	-2%	-5%
CCc1nc2ccc(C(=O)NCCCN(CC)CC)cc2nc1CC	-10%	-8%
COc1ccc(S(=O)(=O)Nc2nc3ccccc3nc2Nc2cccc(C)c2)cc1	-9%	-2%
CCCC(=O)Nc1cccc(OCc2cc(=O)n3cccc(C)c3n2)c1	-9%	5%
C=Cc1ccc(Cn2c(C(=O)O)c(CNC3CCCC3)c3ccc(C)cc32)cc1	-24%	58%[activator]
Cc1nc(N2CCCC2)c2c(C(=O)N3CCN(c4cccc(Cl)c4)CC3)c(C)oc2n1	-23%	1%
O=C(Nc1cc(C(F)(F)F)ccc1Cl)c1cnn(-c2ccccc2)c1-n1cccc1	7%	-12%
CCOc1ccc(-c2[nH]ncc2-c2ccccc2)c(O)c1	8%	0%
COC(=O)c1cccc(OC(=O)c2ccccc2Cl)c1	0%	10%
CCCOC(=O)CSc1nnc2ccc3ccccc3n12	11%	-6%
CN(C)C(=O)CNS(=O)(=O)c1cc(F)ccc1F	-11%	-10%
Cc1ccc2[nH]c3c(=S)nc[nH]c3c2c1	69%[activator]	9%
CSC(=O)c1ccccn1	4%	5%
COc1ccc(N2CCN(c3ncnc4c3cnn4C)CC2)cc1	?	?
Cc1ccc(-c2onc(C)c2C)cc1S(=O)(=O)NCc1ccc(N(C)C)cc1	17%	195%[activator]
CCCCCn1c(CN2CCN(c3ccc(OC)cc3)CC2)nc2c1c(=O)[nH]c(=O)n2C	-14%	-13%

Rewritten field by field: part of the list above.
COC(=O)c1cccc(OC(=O)c2ccccc2Cl)c1
  2A firefly = 0%
  StopGo RLuc = 10%

CCCOC(=O)CSc1nnc2ccc3ccccc3n12
  2A firefly = 11%
  StopGo RLuc = -6%

CN(C)C(=O)CNS(=O)(=O)c1cc(F)ccc1F
  2A firefly = -11%
  StopGo RLuc = -10%

Cc1ccc2[nH]c3c(=S)nc[nH]c3c2c1
  2A firefly = 69%[activator]
  StopGo RLuc = 9%

The list continues:
SMILES	2A firefly	StopGo RLuc
O=C(Nc1ccc(F)cc1)C1CCCN(c2ncnc3c2nc2n3CCCCC2)C1 (stereo not drawn)	-23%	-15%
CCC12CN3CC(C)(CN(C1)C3c1c[nH]c3ccccc13)C2=O (stereo not drawn)	-9%	-10%
Cc1ccccc1NC(=O)c1ccccc1NC(=O)c1ccccc1Cl	-8%	-9%
COC(=O)c1cnn(-c2ccc(C(=O)Nc3ccc(C)cc3Br)cc2)c1N	28%	7%
NC1(c2ccccc2)CCC1	4%	-8%[1.06 µM]
CC(=O)N1CCc2cc(S(=O)(=O)NC(Cc3ccccc3)C(=O)NCc3ccc(C)cc3)ccc21 (stereo not drawn)	-22%	38%[activator]
CCOc1ccc(NC(=O)C(CC)n2nc(C)c3c(C)n(-c4ccccc4)nc3c2=O)cc1 (stereo not drawn)	1%	-5%
Cc1ccc(C(=O)NC(Nc2cc(C)ccc2C)C(Cl)(Cl)Cl)cc1 (stereo not drawn)	-17%	-1%
CCc1ccc(NC(=O)CC2C(=O)N(c3cccc(OC)c3)C(=O)N2Cc2ccco2)cc1 (stereo not drawn)	-16%	48%[activator]
CCOc1ccccc1CNC(=O)c1ncoc1-c1cccs1	5%	20%
CC(C(=O)NC1CCN(Cc2ccccc2)CC1)N1Cc2ccccc2C1=O (stereo not drawn)	-10%	-13%
CCCCCCn1nc(C(=O)OCC(=O)N(C)c2ccccc2)c2ccccc2c1=O	29%	18%

Fetched by compound from the list above (2):
SMILES	2A firefly	StopGo RLuc
NC1(c2ccccc2)CCC1	4%	-8%[1.06 µM]
O=C(Nc1ccc(F)cc1)C1CCCN(c2ncnc3c2nc2n3CCCCC2)C1 (stereo not drawn)	-23%	-15%

(next part)
SMILES	2A firefly	StopGo RLuc
Cc1c(Cl)cccc1-n1ncc(C(=O)NC2CCCCC2)c1C1CCN(C(=O)OC(C)(C)C)CC1	-14%	-7%
CC(COc1cccc(Br)c1)CN1CCC(C(O)(c2ccccc2)c2ccccc2)CC1 (stereo not drawn)	-5%	-6%
CCc1ccc(-n2c(=O)c3sc4ccccc4c3n(Cc3cccc(F)c3)c2=O)cc1	-23%	-15%
Cc1cccn2c(=O)cc(COc3ccc(NC(=O)C(C)Oc4ccccc4)cc3)nc12 (stereo not drawn)	-34%	-13%
CN(CC(=O)NC1(C)CCS(=O)(=O)C1)Cc1ccc(Cl)cc1Cl (stereo not drawn)	3%	1%
O=C(COc1ccc(Cl)cc1)N(Cc1ccco1)Cc1ccco1	-16%	26%
Cc1cccc(C)c1OCC(=O)N(Cc1ccccc1F)C1CCS(=O)(=O)C1 (stereo not drawn)	0%	-7%
CC1(C)Cc2cccc(OCc3ccc(C(=O)NCc4ccccc4)cc3)c2O1	-12%	0%
CCOC(=O)C1CCN(C(c2ccc(SC)cc2)c2c(O)cc(C)n(Cc3ccco3)c2=O)CC1 (stereo not drawn)	-4%	-14%
CCN(CC)C(=O)CN1CCN(C(=O)c2cc(-c3ccc(OC)cc3)nc3ccccc23)CC1	201%[activator]	50%[activator]
Cc1nn(CCCC(=O)NCc2cccc(Cl)c2)c(=O)c2c1sc1ccccc12	24%	-6%
CCNC(=O)Cn1nc(C)c2c(C(=O)OC)cc(C3CC3)nc21	-7%	-11%
Cc1nn(C(C)C)c(C)c1NC(=O)c1cc2sccc2n1C	9%	-6%
COC(=O)C(O)(c1ccc(N(C)C(=O)Nc2cccc(Cl)c2)cc1)C(F)(F)F (stereo not drawn)	46%[activator]	-7%
CCc1ccc(Sc2cc(C(=O)O)c3ccccc3n2)cc1	-11%	6%
O=C(NC(NC(=O)c1ccccc1)C(Cl)Cl)c1ccccc1	16%	53%[activator]
COc1cc(OC)c(NC(=O)c2nc3ccccc3nc2N2CCCCC2)cc1Cl	-12%	-16%
Cc1ccccc1CNC(=O)CCc1cn(Cc2ccccc2C)c2ccccc12	-14%	-7%
CC1(C)C2CCC1(C(=O)Nc1ccccc1)C(=O)C2 (stereo not drawn)	-5%	-7%
Cc1cc(C)cc(NC(=O)C2CCN(S(=O)(=O)c3cccc(-c4noc(C)n4)c3)CC2)c1	?	?
C/C(=N/NC(=S)NCc1ccccc1)c1ccncc1	25%	22%
CCc1ccc(C(C)NC(=O)CC23CC4CC(CC(C4)C2)C3)cc1 (stereo not drawn)	9%	17%
CC(NC(=O)c1ccc2c(c1)NC(=O)CS2)c1ccc(F)cc1F (stereo not drawn)	0%	9%
Cn1cnc2c1c(=O)n(CC(=O)NCc1ccccc1F)c(=O)n2C	0%	17%

Brought forward from above: 7 compounds, followed by the next part.
SMILES	2A firefly	StopGo RLuc
Cc1ccccc1CNC(=O)CCc1cn(Cc2ccccc2C)c2ccccc12	-14%	-7%
CC1(C)C2CCC1(C(=O)Nc1ccccc1)C(=O)C2 (stereo not drawn)	-5%	-7%
Cc1cc(C)cc(NC(=O)C2CCN(S(=O)(=O)c3cccc(-c4noc(C)n4)c3)CC2)c1	?	?
C/C(=N/NC(=S)NCc1ccccc1)c1ccncc1	25%	22%
CCc1ccc(C(C)NC(=O)CC23CC4CC(CC(C4)C2)C3)cc1 (stereo not drawn)	9%	17%
CC(NC(=O)c1ccc2c(c1)NC(=O)CS2)c1ccc(F)cc1F (stereo not drawn)	0%	9%
Cn1cnc2c1c(=O)n(CC(=O)NCc1ccccc1F)c(=O)n2C	0%	17%
CCOC(=O)C(C(=O)OCC)=C(C(=O)OCC)C(=O)OCC	3%	8%
CCN1C(C(=O)c2ccccc2)=C(OC(=O)c2ccc(OC)cc2)c2ccccc2S1(=O)=O	-8%	-5%
CCn1c(SCC(=O)Nc2ccc(C(C)=O)cc2)nc2nc3c(cc2c1=O)COC(C)(C)C3	162%[activator]	-2%
Nc1c(Br)cc2oc(-c3cccc4ccccc34)nc2c1Br	65%[activator]	-2%
Cc1cc(C)n(-c2nc3c(c(=O)n(C)c(=O)n3C)n2Cc2ccccc2Cl)n1	4%	-6%
CC(C)C(NC(=O)c1cccc(NC(N)=O)c1)c1ccc(Cl)cc1 (stereo not drawn)	-20%	-13%
O=C(Nc1ccc(OC(F)(F)F)cc1)c1cccn(Cc2ccccc2Cl)c1=O	-2%	0%
Cc1c(CC(=O)N2CCCCC2)c(=O)oc2c(C)c(O)ccc12	14%&6%	2%&-5%
COCCCn1cnnc1SCC(=O)c1c[nH]c2ccccc12	-8%	-19%
O=S(=O)(NC(c1ccccc1)c1ccccc1)c1cccs1	17%	0%
CCOc1ccc(CNC(=O)Nc2ccc3c(c2)N(C)C(=O)c2ccccc2S3)cc1	0%	1%
Cc1ccc(-c2cn3nc(N4CCCC(C(=O)NCc5ccccc5F)C4)sc3n2)cc1 (stereo not drawn)	77%[activator]	2%
CCCCCn1nc(C(=O)Nc2nccs2)c2ccccc2c1=O	19%	54%[activator]
CS(=O)(=O)Nc1ccccc1NC(=O)Cc1ccc2c(c1)CCC2	51%[activator]	18%
CCOc1ccccc1NC(=O)CSc1ncc2c(n1)-c1ccccc1N(CC)S2(=O)=O	-18%	5%
CNS(=O)(=O)c1cc(C(=O)NCc2ccc(-c3nc4ccccc4s3)o2)ccc1Cl	-95%	?
O=C(CC(Nc1ccc(Cl)cc1)C(=O)O)c1ccccc1 (stereo not drawn)	132%[activator]	19%
COc1ccccc1Cn1c(CNS(=O)(=O)c2ccc(C(C)C)cc2)nc2cccnc21	-14%	167%[activator]
Cc1nc(-c2ccc(S(=O)(=O)N3CCN(c4cccc(C)c4C)CC3)cc2)co1	5%	-7%
COCCNC(=O)Cn1c(=O)n(CCCCCC(=O)NCc2ccccc2Cl)c(=O)c2sccc21	0%	0%
COc1ccc(-c2cc(C(=O)N3CCN(Cc4ccccc4)CC3)c3ccccc3n2)cc1	85%[activator]	23%
CCCn1nc(C(=O)Nc2ccc(C(C)=O)cc2)c2ccccc2c1=O	143%[activator]	8%
CCn1c(SCC(=O)N(C)Cc2ccc(-c3ccc(Br)cc3)o2)nnc1C1CC1	-22%	-27%
Cc1n[nH]c(C)c1S(=O)(=O)N1CCN(C)CC1	-1%	-6%
C=CCNc1nc2c(c(=O)[nH]c(=O)n2C)n1CCCCC	25%	11%
CC(C)CNCc1ccc(-c2ccccc2)o1	0%	-4%
O=C(COc1ccccc1F)Nc1ccc2oc(-c3ccc(F)cc3)nc2c1	140%[activator]	3%
COc1ccccc1/C=C1\Oc2cc(OS(C)(=O)=O)ccc2C1=O	0%	21%
CC(=O)N1C=Cc2ccccc2C1CC(=O)Nc1cccc(S(=O)(=O)N2CCOCC2)c1 (stereo not drawn)	1%	39%[activator]
Cc1oc2cc(OS(C)(=O)=O)ccc2c(=O)c1-c1ccc(Br)cc1	?	?
Cn1c(=O)c2sccc2n2c(CCCC(=O)N3CCN(c4ccccc4F)CC3)nnc12	-8%	-5%
O=C(/C=C/c1cnc2ccccc2n1)NC1CCCCCC1	202%[activator]	4%
COc1cc(-c2noc(C3CC(=O)N(c4cc(C)ccc4C)C3)n2)cc(OC)c1OC (stereo not drawn)	-11%	0%
COc1ccc(Br)cc1COc1ccc(C(C)=O)cc1OC	0%	20%
Cc1ccc(C(=O)N2c3nc(-c4ccco4)nn3C3(CCCCC3)[C@@H]3CCCC[C@@H]32)cc1	-19%	9%
O=C(CSc1cnc2ccccc2n1)OCc1cccc2ccccc12	9%	2%
Cc1nc2scc(C)n2c(=O)c1S(=O)(=O)Nc1cccc(O)c1	-6%	72%[activator]
CCCN(CCC)CCNC(=O)CN1C(=O)COc2ccc(S(=O)(=O)N3CCOCC3)cc21	18%	6%
O=C(NCC(c1cccnc1)N1CCN(Cc2ccccc2)CC1)C(=O)Nc1ccc(Cl)cc1 (stereo not drawn)	?	?
CC(C)CNC(=O)CSc1nc(-c2ccccc2)[nH]c1S(=O)(=O)c1ccccc1	4%	110%[activator]
CCOC(=O)COc1ccc(/C=C2/NC(=O)NC2=O)cc1Br	4%	-10%
Cc1ccc(C(O)CNC(=O)C2CCC2)cc1 (stereo not drawn)	8%	-8%
CCOc1ccc(Nc2sc(C(=O)c3cccc(OC)c3)c(N)c2S(=O)(=O)c2ccccc2)cc1	-12%	-1%
CCOCCSc1nc2c(c(=O)[nH]c(=O)n2C)n1CCCc1ccccc1	0%	-1%
